PINK1 expr mod: A Quantitative High throughput Screen to Identify Chemical Modulators of PINK1 Expression. PINK1 immunofluorescence, high-content cytometry, 24 h. Potency, µM (top dose mostly 76.6 µM), inactives show at the highest dose activation (PINK1 increase), hits mostly activators. 410,000 compounds, 0.2% hits. AID 624263, 2012; active = well fitted activation curve with a large enough effect; inconclusive = small, poorly fitted or top-dose-only effect; inactive = flat fitted curve, though single readings scatter; cell line not stated here;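 note: potency is the fitted concentration of half-maximal effect; % of control where 0% means no effect; nearly all actives have a fitted effect of over 65% in size; a mitochondrial uncoupler was the plate control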
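PINK1 protein level read as immunofluorescence by microplate cytometer in a fixed, stained stable cell line after 24 h exposure to five compound concentrations, with CCCP as control.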
Sfp inh: qHTS Assay for Inhibitors of Bacillus subtilis Sfp phosphopantetheinyl transferase (PPTase) | 4'-phosphopantetheinyl transferase ffp (Bacillus subtilis), Q9F4F7 | Biochemical Sfp PPTase activity, qHTS | Potency, µM, for inactives: max response, negative = inhibition, most hits filed as inhibitors | 310,000 compounds, 3.5% hits | AID 1490, 2009; active = well fitted inhibition curve with a large enough effect; inconclusive = small, poorly fitted or top-dose-only effect, or another doubt; inactive = no such curve, though single readings can be large or run the other way;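 note: the enzyme is Sfp with the accession as filed and its product quenches rhodamine fluorescence; potency is the fitted concentration of half-maximal effect; 0% = enzyme reaction without inhibitor and -100% = no enzyme wells; top concentration of the series not given in the record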
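Compounds were incubated with enzyme (final 15 nM) for 15 min at room temperature before substrate addition started the reaction. Fluorescence at 525 nm excitation, 598 nm emission was recorded immediately and after 30 minutes.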
D2 PAM: Beta-Arrestin HTS for Positive Allosteric Modulators of the Human D2 Dopamine Receptor: Potentiators; DiscoveRx D2 beta-arrestin cells, luminescence, 90 min; 100% = 57 uM dopamine signal; potentiation, % (concentration not given with the values); D(2) dopamine receptor (Homo sapiens), P14416; 360,000 compounds, 0.23% hits; active = potentiation of 50% or more; inconclusive = 30% to 50%; inactive = 30% or less;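 note: tested on top of an EC20 dose of dopamine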
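D2 cells co-treated with compound plus 50 nM dopamine (EC20) for 90 min at 37 deg C to detect potentiation. Beta-arrestin recruitment was read as enzyme-fragment luminescence after 1 h at ambient temperature. Full response was set by 57 uM dopamine.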
Six1-Eya2 blk: qHTS Assay for Inhibitors of the Six1/Eya2 Interaction | Homeobox protein SIX1 (Homo sapiens) + Protein phosphatase EYA2 (Homo sapiens), … | AID 651725, 2012 | activity change, % (concentration not given with the values) | AlphaScreen GST-Six1/His-Eya2 binding, biochemical; stronger effect = lower value; control for the full effect not named in the record | 360,000 compounds, 0.56% hits; in the data active = activity change below about -65%; inconclusive = about -30% to -65%; inactive = above about -30%; note: % is set by controls: 0 for no effect and ±100 for the full control effect
Target sequence (O00167 whole entry, looked up): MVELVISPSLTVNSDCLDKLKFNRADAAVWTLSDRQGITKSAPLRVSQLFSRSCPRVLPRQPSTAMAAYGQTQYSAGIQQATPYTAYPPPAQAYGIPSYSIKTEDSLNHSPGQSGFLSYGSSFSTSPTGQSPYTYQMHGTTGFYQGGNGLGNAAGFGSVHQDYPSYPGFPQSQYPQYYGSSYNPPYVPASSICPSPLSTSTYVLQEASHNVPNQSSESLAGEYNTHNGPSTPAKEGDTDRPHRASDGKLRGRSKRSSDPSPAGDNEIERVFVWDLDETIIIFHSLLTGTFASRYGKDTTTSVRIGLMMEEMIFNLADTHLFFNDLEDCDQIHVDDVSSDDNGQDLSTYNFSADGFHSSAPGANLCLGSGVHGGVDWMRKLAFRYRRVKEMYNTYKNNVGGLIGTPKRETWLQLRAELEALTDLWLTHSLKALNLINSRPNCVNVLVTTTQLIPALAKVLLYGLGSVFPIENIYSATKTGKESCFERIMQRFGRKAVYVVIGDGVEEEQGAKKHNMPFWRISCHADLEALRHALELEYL
Target sequence (Q15475 whole entry, looked up): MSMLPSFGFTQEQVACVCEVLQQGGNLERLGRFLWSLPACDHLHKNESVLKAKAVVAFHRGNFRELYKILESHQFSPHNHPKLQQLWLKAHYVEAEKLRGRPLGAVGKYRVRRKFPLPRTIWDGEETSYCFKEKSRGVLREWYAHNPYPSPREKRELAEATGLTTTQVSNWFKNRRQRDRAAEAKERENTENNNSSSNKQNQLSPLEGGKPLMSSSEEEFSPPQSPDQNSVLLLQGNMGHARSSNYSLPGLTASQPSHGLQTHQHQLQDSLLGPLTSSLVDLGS
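Six1/Eya2 binding was read as AlphaScreen signal after compounds were pinned into GST-Six1 plus His-tagged Eya2 (5X stock 250/500 nM) in pH 8.0 Tris/NaCl/TCEP buffer, beads added, then incubated 1 h, 37 C, dark.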
TRPV1 PAM: HTS Assay for Compounds that Act as Potentiators of the Vanilloid Receptor 1; TRPV1-expressing cells, Fluo-8 calcium influx, capsaicin EC20 potentiation; host cell line not named in the record; control for the full effect not named in the record; potentiation, % at 8.33 µM; 320,000 compounds, 0.02% hits; active means potentiation above 80%; inconclusive means 30% to 80%; inactive means below 30%; note: 0% is about no effect
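TRPV1-expressing cells were cultured overnight at 35.5C and loaded with Fluo-8 calcium dye for 40 to 90 min at room temperature. After a 10 s baseline, compound was added and calcium influx was read kinetically for 3 min (ex 480/em 520 nm).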
D2 ag: Beta-Arrestin HTS for Positive Allosteric Modulators of the Human D2 Dopamine Receptor: Agonists | D(2) dopamine receptor (Homo sapiens), P14416 | DiscoveRx PathHunter D2 beta-arrestin, luminescence, 90 min; 100% = 57 uM dopamine signal | activation, % (test concentration not listed) | 360,000 compounds, 0.084% hits; in the data active = activation above about 40%; inconclusive = about 15% to 40%; inactive = below about 15%; note: compound concentration not given in the record; the text of the record calls up to 30% inactive
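DiscoveRx PathHunter D2 beta-arrestin cells (2,100/well) attached overnight, then compound-stimulated 90 min at 37 C in HBSS/10 mM HEPES/0.1% Tween-20 buffer; beta-galactosidase complementation read by luminescence after 1 h at ambient temperature. Dopamine 57 uM final (EC100) as control.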
CtBP-E1A inh: qHTS Assay for Inhibitors of the CtBP/E1A Interaction | CtBP / adenovirus E1A interaction (AlphaScreen) | AlphaScreen GST-E1A/His-CtBP binding, 1536-well; stronger effect = lower value; control for the full effect not named in the record | activity change, % (test concentration not listed) | 340,000 compounds, 0.49% hits; in the data active means activity change below about -65%; inconclusive means about -30% to -65%; inactive means above about -30%; note: % is set by controls: 0 for no effect and ±100 for the full control effect
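GST-E1A and His-tagged CtBP (125 nM each as 5X stock) were preincubated with pin-transferred compound for 2 h at 37 °C in the dark, then glutathione donor and nickel acceptor beads were added for 1 h before AlphaScreen reading.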
An asterisk follows results filed as active; ? = inconclusive; nt = not tested or not shown; [ ] = remark or other dose.

smiles	PINK1 expr mod	Sfp inh	D2 PAM	Six1-Eya2 blk	TRPV1 PAM	D2 ag	CtBP-E1A inh
O=C(NCC1(N2CCOCC2)CCCCC1)c1ccc(S(=O)(=O)Nc2ccccc2F)cc1	1.6%	6.6%	-14.1	-2.2	-8.6	-5.1	-10.3
COc1ccccc1CNC(=O)COc1ccc(S(=O)(=O)N2CCOCC2)cc1C	-2.3%	1.8%	1.2	-1.7	-8.9	4.2	-1.8
CCN(CC)CCN(Cc1cc2ccc(C)cc2[nH]c1=O)C(=O)Nc1ccc(Cl)cc1	2.3%	-6.0%	-10.2	0.1	-15.0	0.0	4.7
CC(=O)Nc1ccc(S(=O)(=O)Nc2ccc(S(=O)(=O)N3CCCCCC3)cc2)cc1	1.5%	2.8%	-11.3	-1.2	-10.6	1.2	-5.2
CC(=O)Nc1sc(N/N=C\c2ccccc2)nc1-c1cccs1	0.8%	50.1µM*	13.6	-3.9	9.7	-0.3	-0.2
COc1ccccc1Cc1nc(-c2cccnc2)no1	-0.6%	2.4%	-17.4	5.2	-0.5	-2.3	nt
CSc1ccccc1C(=O)C1CCCN(S(=O)(=O)c2c(C)noc2C)C1 (stereo not given)	0.4%	-5.0%	-8.5	-6.1	3.7	-2.2	10.2
CCCn1c(O)c(/C=C2\C=NN=C2c2ccccc2)sc1=S	?	-22.5%	3.6	-23.2	-9.2	0.4	-27.9
COc1cc2c(cc1OC)CN(C(=O)CN1C(=O)c3ccc([N+](=O)[O-])cc3C1=O)CC2	-6.8%	nt	59.8*	-6.2	5.2	6.1	3.4
COc1ccccc1NC(=O)N(C)C[C@H]1OCc2cnnn2CCCC(=O)N([C@H](C)CO)C[C@H]1C	1.7%	nt	1.9	6.3	nt	-7.6	-1.5
CN(CC(=O)Nc1c(Cl)cccc1Cl)C(=O)Cc1ccsc1	-1.6%	nt	-0.4	-6.4	nt	-6.0	1.6
COc1ccccc1-c1c(C)nn2c(N3CCCCCC3)cc(C)nc12	?	-23.0%	-3.7	0.4	-6.3	2.1	9.5

Laid out differently: entries from further up.
CC(=O)Nc1sc(N/N=C\c2ccccc2)nc1-c1cccs1
  PINK1 expr mod: 0.8%
  Sfp inh: 50.1µM*
  D2 PAM: 13.6
  Six1-Eya2 blk: -3.9
  TRPV1 PAM: 9.7
  D2 ag: -0.3
  CtBP-E1A inh: -0.2
COc1ccccc1-c1c(C)nn2c(N3CCCCCC3)cc(C)nc12
  PINK1 expr mod: ?
  Sfp inh: -23.0%
  D2 PAM: -3.7
  Six1-Eya2 blk: 0.4
  TRPV1 PAM: -6.3
  D2 ag: 2.1
  CtBP-E1A inh: 9.5

More structures follow.
smiles	PINK1 expr mod	Sfp inh	D2 PAM	Six1-Eya2 blk	TRPV1 PAM	D2 ag	CtBP-E1A inh
COc1ccc([N+](=O)[O-])cc1/C=N/NC(=O)CNC(=O)c1cccc(F)c1	12.8%	5.5%	-38.9	?	-16.4	-0.7	-69.8*
Cc1cccc(CN2[C@@H](CC(C)C)COCCS2(=O)=O)c1	2.9%	nt	-6.6	16.9	nt	-1.4	nt
CCOC(=O)c1ccc(NC(=O)CCC(CC)C(=O)O)cc1 (stereo not given)	-1.7%	-3.4%	-4.4	6.8	-8.6	-2.3	-3.0
Cc1onc(-c2c(F)cccc2Cl)c1C(=O)N1CCc2ccccc21	-1.1%[38.3 µM]	3.0%	-10.4	3.0	-23.9	-2.0	5.5
O=c1oc(-c2ccccc2F)nc2c1cnn2-c1ccccc1	-2.2%[38.3 µM]	-1.9%	-24.8	-1.6	0.0	-5.1	-7.5
NC(=O)c1ccc2c(=O)n3c(-c4cc(Cl)c(N)c(Cl)c4)csc3nc2c1	13.8%	-13.7%	-2.7	-75.2*	0.0	1.0	-76.1*
CCN1C(=O)[C@H]2[C@@H](c3ccc(-c4cc(C(C)=O)cs4)cc3)N3CCCC[C@@]3(C(=O)OC)[C@H]2C1=O	-0.2%	nt	-5.7	1.0	20.3	-2.4	2.9
CC(C)(C)NCC(O)Cn1cc(C=O)c2ccccc21 (stereo not given)	1.3%	13.3%	-9.4	-0.3	-1.9	-27.4	nt
COc1cc(/C=C2/S/C(=N/S(=O)(=O)c3ccccc3)NC2=O)c([N+](=O)[O-])cc1OC	2.5%	79.4µM*	-6.5	-17.2	-2.5	-3.6	-26.7
OCC[C@@H]1C[C@H](O)[C@@H](O)[C@@]2(Cc3ccccc3O2)O1	1.5%	14.1%	-4.1	11.8	11.9	-7.2	10.1
CCOc1ncccc1C(=O)OCC(=O)c1cccs1	3.5%[38.3 µM]	13.3%	-6.1	0.2	-4.6	0.5	3.8
COc1ccc(C(O)c2coc3ccc(O)c(CN(C)C)c23)cc1 (stereo not given)	-0.3%	9.0%	-5.5	-2.0	0.9	-0.6	2.6
Cc1ccc(OCCNC(=O)c2cc(-n3cnnc3)ccc2Cl)cc1C	nt	-0.6%	-3.2	0.9	-5.7	1.0	9.8
C=CC[C@H](CC(=O)NCCO)C(=O)N[C@@H](COC(=O)[C@@H](CC=C)Cc1ccc(F)cc1)Cc1c[nH]c2ccccc12	1.4%	nt	-3.0	-8.6	nt	1.2	-1.8
CCc1nc2ccccc2n(CC)c1=O	2.8%	12.6%	-1.4	-2.7	?	-2.3	11.2
CCc1ccc(NC(=O)Cn2c(=O)oc3cc(S(=O)(=O)N4CCOCC4)ccc32)cc1	13.1%	11.4%	-2.9	-8.1	-9.5	-8.6	-2.7
CCC(=O)Nc1ccc(C(=O)OCc2ccc(Cl)c(Cl)c2)cc1	5.7%	-1.1%	9.5	17.1	-1.2	-1.7	-6.7
N#CC1=C(N)c2ccccc2CC12CCCCC2	6.8%[38.3 µM]	19.8%	-6.5	-2.0	3.9	-0.8	0.8
CC(=O)NC(c1ccccc1)c1nc(-c2cccc(C(=O)O)c2)cs1 (stereo not given)	0.2%	nt	-4.1	-4.9	nt	-2.0	1.3
Cc1ccc(S(=O)(=O)N2C[C@@H]3[C@H]4CC[C@H](C4)[C@@H]3[C@@H](C)C2CC(=O)c2ccccc2)cc1 (stereo not given in full)	12.9%	nt	-10.2	-10.4	nt	-3.1	-9.3
O=C(Nc1nnc(-c2cccs2)s1)C1CC1	7.9%	-48.1%	-22.8	-1.2	2.9	-0.6	-3.1
CC(C)CCN(C)C1CCN(S(=O)(=O)c2cccc(C(F)(F)F)c2)CC1	-2.4%	6.4%	-19.2	-1.1	-34.5	-3.1	-2.2
O=C(c1ccccc1)N1CCN=C1c1ccccc1	1.6%	16.7%	-16.8	7.4	-0.3	-1.9	1.4
Cc1cc(Cl)ccc1OCCCC(=O)NN	-0.2%	11.6%	-27.2	-2.1	-17.1	-1.1	0.0
CCOc1cc(NC(=S)Nc2ccccc2)c(OCC)cc1NC(=O)c1ccc(OC)cc1	0.3%	-14.6%	12.3	-12.9	nt	0.5	-17.3
CCN(CC(=O)Nc1ccccc1C(F)(F)F)C(=O)c1ccccc1SCC(=O)N1CCCC1	1.5%	nt	1.2	1.9	4.2	-6.6	6.8
CC(=O)c1cccc(Nc2c([N+](=O)[O-])c(=O)oc3ccccc23)c1	1.1%	11.1%	-4.6	-5.8	20.0	-0.4	-7.2
O=C(CCc1ccccc1)N=C1SC2CS(=O)(=O)CC2N1Cc1ccc(F)cc1 (stereo not given)	1.9%	14.9%	-3.7	2.9	-17.9	-6.0	2.8
O=C1CSC(=Nc2cccc(C(=O)O)c2)N1	1.6%	8.3%	-8.8	-12.3	-6.3	-0.9	0.1
CCN(CC)S(=O)(=O)c1ccc(C(=O)NN(C)C2=NS(=O)(=O)c3ccccc32)cc1	-0.5%	6.0%	-6.0	3.3	14.2	-3.4	8.3
CCOC(=O)N1CCN(C(=O)c2ccccc2SCC(=O)NCC2CCCCC2)CC1	0.1%	nt	3.0	-1.4	-10.2	-1.7	-13.6
CCOC(=O)C(C)Oc1ccsc1C(=O)OC (stereo not given)	6.1%[38.3 µM]	14.4%	-0.9	5.8	nt	-1.8	3.4
O=C(CNS(=O)(=O)c1ccc(C(=O)N2CCCCC2)cc1)N1CCCCC1	-2.0%	12.8%	-5.6	3.8	-3.0	-0.7	-1.1
Cc1cccn2c(=O)c3cc(C#N)c(=NC(=O)c4cccs4)n(CCCOC(C)C)c3nc12	0.7%	1.8%	-3.1	-0.9	0.9	0.5	0.3
C[C@@H]1CN([C@@H](C)CO)C(=O)CCCn2nncc2CO[C@H]1CN(C)Cc1ccc2c(c1)OCO2	-0.1%	nt	2.6	-4.3	nt	-3.7	2.1
Cn1nc(C(F)(F)F)c2cc(NC(=O)OCc3ccc(C(C)(C)C)cc3)sc21	?	29.9%	-11.8	0.7	-25.2	-3.3	-5.3
CCOC(=O)C1CN(S(=O)(=O)c2cccs2)c2ccc(CC(=O)OC)cc2O1 (stereo not given)	0.2%	7.3%	-3.7	0.1	-5.9	-5.5	-11.1
CCN(CC)S(=O)(=O)c1ccc2nnn(OCC(=O)Nc3cccc(C#N)c3)c2c1	-1.1%	8.4%	-10.5	-10.4	-10.7	-2.7	-3.2
CCOC(=O)CSc1nnc(CNC(=O)c2ccc(OC)cc2)n1-c1ccc(OC)cc1	-1.4%	10.8%	-15.4	2.7	-11.1	-1.8	4.2
CCCCNC(=O)c1c(N)[nH]c(C(=O)c2ccccc2)c1-c1ccccn1	3.5%	nt	nt	-5.7	nt	nt	-5.0
CCCCCN1C2=NCCN2c2ccccc21	-2.0%	-3.1%	-4.7	28.4	8.3	-3.6	0.0
COc1ccc(S(=O)(=O)N2CCN(Cc3cc(OC)c(O)c(OC)c3)CC2)cc1	1.3%	-25.2%	-2.2	-3.5	7.6	-5.2	11.6
C=CCn1c(-c2ccc(OC)cc2)nc2nc3ccccc3nc21	-1.0%	8.2%	-0.8	5.8	-5.8	-3.9	2.4
Cc1cc(F)ccc1S(=O)(=O)N1CCCOC1CNC(=O)C(=O)NCc1ccccn1 (stereo not given)	-1.0%	11.6%	-5.7	-0.4	-2.7	0.5	-0.7
